Vaccinia mCherry: inhibitors of vaccinia virus infection (mCherry reporter signal) | Vaccinia virus mCherry reporter infection, fluorescence; about a quarter of the inactives have no number | AID 720579 | 310,000 tested, 0.63% active | Potency, µM (doses to about 36.5 µM), for inactives: top-dose activity change, negative = inhibition, hits mostly inhibitors; active = well fitted inhibition curve with a large enough effect; inconclusive = small, poorly fitted or top-dose-only effect; inactive = no such curve, though single readings can be large or run the other way; tested in A549 cells; note: nearly all actives have a fitted effect of over 35% in size; inactives centre near -10
VACV Venus inh: vaccinia inhibition (Venus reporter); Vaccinia virus Venus reporter expression, fluorescence; Potency, µM (top dose mostly 36.5 µM), inactives show top-dose activity change, negative = inhibition, usual class: inhibitors; 330,000 tested, 0.46% active; active means well fitted inhibition curve with a large enough effect; inconclusive means small, poorly fitted or top-dose-only effect; inactive means no such curve, though single readings can be large or run the other way; tested in A549 cells; note: nearly all actives have a fitted effect of over 30% in size; inactives centre near -10
* hit, by the source's call; i = inactive; ? = inconclusive; nt = not tested or not shown; & = joins results of further samples; [ ] = another dose, or the depositor's remark. % is set by controls: 0 for no effect and ±100 for the full control effect; potency is the fitted concentration of half-maximal effect.

SMILES	Vaccinia mCherry	VACV Venus inh
COc1ccc(CCNC(=O)CCC(=O)n2ncc3ccc(Cl)cc32)cc1OC	i	-3.7%
CCn1nc(NC(=O)c2ccncc2)c2cc3ccccc3nc21	?	?
COC(=O)c1ccc(N2C(=O)c3cc(N4CCOCC4)c([N+](=O)[O-])cc3C2=O)cc1	i	-10.5%
C=CC[C@H](CC(=O)NCCO)C(=O)NC[C@@H](OC(=O)[C@H](CC=C)CC(=O)OC(C)(C)C)c1ccccc1	-9.6%	-10.0%
Cc1cccc(NC(=O)c2sc3nc4c(cc3c2N)CCCCCC4)c1C	-0.2%	?
CC(C)NC(=O)N1Cc2cc(C(=O)NC3CCCCC3)nc(-c3cccc(-c4cccnc4)c3)c2[C@@H]1CCO	?	?
CC(C)C[C@@H](CN1CCC[C@H]1CN1C(=O)C(=O)NC[C@@H]1Cc1ccc(O)cc1)N1C[C@H](Cc2ccccc2)N(CC2CCCCC2)C(=O)C1=O	-7.0%	-3.3%
CC(C)N1CCC(N2CCN(CCCc3ccccc3)CC2CCO)CC1 (stereo not drawn)	?	-14.7%
Cn1c(=O)[nH]c(=O)c2c1nc(N/N=C/C(Br)=C/c1ccccc1)n2CCO	-9.7%	-13.9%
N#CC1=C(Nc2ccccc2Cl)SC(c2ccccc2O)NC1=O (stereo not drawn)	i	-7.9%
COC(=O)c1cc(-c2ccc(NC(C)=O)cc2)nc2ccccc12	-8.9%	-8.2%
O=C1C2CCN(CC2)C12CC2c1ccc(C(F)(F)F)cc1 (stereo not drawn)	-1.5%	-7.6%
Cc1ccc2oc(=O)n(CCOc3ccccc3C)c2c1	-10.1%	-11.9%
COC(=O)c1ccccc1N1C(=O)[C@@H]2C(c3ccc(Br)cc3)=NO[C@@H]2C1=O	i	-5.9%
CNC(=O)CCN(Cc1ccco1)S(=O)(=O)c1ccc(OC)c(OC)c1	-2.4%	-15.1%
Cc1onc(-c2ccccc2Cl)c1C(=O)NCc1nnnn1-c1ccc(F)c(F)c1	i	-19.9%
CC(C)(C)OC(=O)N1CCN(C(=O)c2[nH]c(C(F)(F)F)nc2-c2ccccc2)CC1	14.3%	9.5%
CCOC(=O)c1cc(C)[nH]c(=O)c1C#N	i	-4.2%
O=C1NC(c2cccc([N+](=O)[O-])c2)Oc2ccccc21 (stereo not drawn)	-3.5%	-11.8%
CCOC(=O)N1CCN(C(=O)C(NC(=O)c2ccco2)C(C)C)CC1 (stereo not drawn)	i	-19.6%
CCSc1nnc(NC(=O)C(C)C)s1	i	-17.0%
CCOc1ncccc1C(=O)OCC(=O)Nc1cc(S(=O)(=O)N(CC)CC)ccc1C	-14.5%	-5.4%
CCCN(CCC)CCCNC(=O)c1cn(C)c2ccc(S(=O)(=O)N(C)C3CCCCC3)cc2c1=O	i	-5.0%
COc1cc(C2Nc3ccccc3C(=O)N2c2ccc3c(c2)OCCO3)ccc1OCC(C)C (stereo not drawn)	-5.6%[1.46 µM]	-25.1%
CN(C)c1cccc(N=C2C=C(N3CCOCC3)CC(C)(C)C2)c1	-11.7%	-4.1%
OCCN(CCO)c1ncnc2c1cnn2-c1ccc(F)cc1	-12.0%	-13.4%
CN(c1ccccc1)S(=O)(=O)c1cccc(NC(=O)CN2CCc3ccccc3C2)c1	-9.8%	-2.1%
COc1ccc(Cn2c(CO)cnc2SCc2ccccc2)cc1	-9.5%	-2.9%
COc1ccc(C2CC(=O)Oc3cc(O)ccc32)cc1 (stereo not drawn)	-6.7%	0.0%
O=C(O)c1ccc(-c2ccc(/C=N/Nc3ccc([N+](=O)[O-])cc3)o2)cc1	?	34.1%[activator]
Clc1nc2nc3n(c2nc1Cl)CCC3	-0.3%	-8.2%
CCOC(=O)N1CCN(C(=O)Nc2ccc3nc(C)c(C)nc3c2)CC1	nt	-1.2%
CC1(C)CC(=O)C=C(c2cccc(Br)c2)C1	i	-8.6%
CC(Oc1cccc(Cl)c1)C(=O)Nc1ccc([N+](=O)[O-])cn1 (stereo not drawn)	-13.3%	-5.1%
CCCCC[n+]1ccn(-c2nc3ccccc3nc2[N-]S(=O)(=O)c2ccc(C)cc2)c1	-9.0%	5.9%
COc1ccc(C(=O)Nc2ccc3nc4c(c(Nc5ccc(OC)c(OC)c5)c3c2)CCCC4)c(OC)c1	-14.4%	-10.4%
COc1ccc(C(=O)CSc2cc(C)nc3nc(C)nn23)cc1OC	?	?
Cc1ccc(C(=O)CCC(=O)OCC(=O)N2c3ccccc3NC(=O)C2(C)C)cc1	-14.4%	-4.4%
C[C@@H]1CN([C@H](C)CO)C(=O)CCCn2nncc2CO[C@H]1CN(C)C(=O)OCc1ccccc1	i	-7.9%
CC(C)N(C(=O)COC(=O)[C@@H]1CC(O)CN1S(=O)(=O)c1ccc(C(C)(C)C)cc1)C(C)C (stereo partly drawn)	i	-17.7%
CCC(C(=O)NC1CCCC1)N(Cc1cccs1)C(=O)Cn1nnc(-c2ccc(OC)c(OC)c2)n1 (stereo not drawn)	-1.1%	-22.0%
O=C(NCc1cc(Cl)cc(Cl)c1)c1csc(COCCO)n1	14.9%	0.9%
O=S(=O)(c1ccc(-n2cnnn2)cc1)N1CCN(c2cccc(Cl)c2)CC1	-14.6%	-9.8%
Cc1ccc(S(=O)(=O)/N=C(\c2ccc(F)cc2)n2c(C)nc3ccccc32)cc1	nt	1.8%
O=C(CSc1nc2ccccc2[nH]1)Nc1ccc2c(c1)CCC2	i	4.5%
Nc1cc(OCC(F)(F)F)cc(OCC(F)(F)F)c1	-1.6%	-10.0%
Cc1cccc(N2C(=O)c3ccc(C(=O)Nc4c[nH]c(=O)[nH]c4=O)cc3C2=O)c1	-12.3%[7.34 µM]	-7.8%[7.34 µM]
O=C(c1ccc([N+](=O)[O-])cc1)N1CCSC1c1ccccc1Cl (stereo not drawn)	-11.1%	-14.5%
Cc1nc(SCc2ccc(Cl)cc2)c(C#N)c(C)c1Cl	2.4%	12.1%
CC(=O)Cc1cc(=O)c2c(C)cc(O)c(C3OC(CO)C(O)C(O)C3O)c2o1 (stereo not drawn)	1.4%	3.6%
COCCNC(=O)CSc1nc(-c2ccc(F)cc2)[nH]c1-c1ccc(Cl)cc1	-18.7%	-18.6%
Cn1cc(SCC(=O)NCc2ccc(F)cc2)c2ccccc21	i	-3.8%
NC(=O)c1ncn([C@@H]2O[C@H](CNS(=O)(=O)c3cc(S(=O)(=O)c4ccccc4)cs3)[C@@H](O)[C@H]2O)n1	i	-9.5%
Cn1ncc(Cl)c1C(=O)N1CCN(S(=O)(=O)c2cccs2)CC1	-15.4%	-11.0%
C/C(=N\NC(=O)c1ccc(N2CCCC2=O)cc1)c1ccncc1	i	-13.1%
C#Cc1ccc(NC(=O)C2(C)CCN2C(=O)c2cc(C)n(C)n2)cc1 (stereo not drawn)	32.6%[activator]	-14.9%
CCOCCCN1C(=O)CN(C2CCCCCC2)C(=O)C1c1ccc(OCC)c(OC)c1 (stereo not drawn)	-15.6%	-8.2%
N#C/C(=C\c1ccc([N+](=O)[O-])cc1)c1nc(C2CC2)cs1	-14.9%	0.4%
COc1ccccc1C(=O)Nc1cccc(N2CCC(NCc3cnn(-c4ccccc4)n3)CC2)c1	-6.7%	-29.7%
CC(=O)n1c2ccccc2c2ccccc21	-7.0%	-5.6%

Remaining list, next part.
SMILES	Vaccinia mCherry	VACV Venus inh
Cc1ccc(S(=O)(=O)N[C@H](C(=O)N2CCC3(O)CCCCC3C2)c2ccccc2)cc1 (stereo partly drawn)	nt	-19.2%
O=C(Nc1ccc(Cl)cc1)C1Cc2c(-c3ccc(Cl)cc3)ccnc2O1 (stereo not drawn)	-14.8%	-6.3%
Cc1cccc(-c2cc(C(=O)N/N=C/c3cccnc3)c3ccccc3n2)c1	?	14.2%
CN/C(=C\[N+](=O)[O-])NCCSCc1csc(CN(C)C)n1	-8.0%	-6.2%
Cc1cccc(N=[N+]([O-])c2cccc(C)n2)n1	-4.2%	0.8%
CCSc1cc(N2CC(C)OC(C)C2)nc(-c2ccccc2Cl)n1 (stereo not drawn)	nt	-11.6%
COc1ccc(OC)c(NC(=O)C2=C(C)C(=O)OC23CCN(C(C)C)CC3)c1	-6.0%	-7.5%
NC(=O)c1ccc(C(=O)c2ccc([N+](=O)[O-])cc2)cc1	i	-10.2%
CC(=O)Nc1ccc(NS(=O)(=O)c2ccc(Cl)s2)cc1	-6.3%&-1.8%	-7.1%&-5.2%
COc1cccc(C2(CC(=O)N3CCN(c4nonc4C)CC3)CC(=O)N(C3CCCC3)C2=O)c1 (stereo not drawn)	-3.0%	-15.0%
CCOC(=O)C1CCCN(S(=O)(=O)c2ccc3c(c2)N(C)C(=O)CC(=O)N3C)C1 (stereo not drawn)	-12.2%	-15.2%&-3.5%
Oc1ccccc1Nc1ncnc2c1oc1ccccc12	nt	0.5%

Pulled one by one from above (6):
SMILES	Vaccinia mCherry	VACV Venus inh
Cc1cccc(-c2cc(C(=O)N/N=C/c3cccnc3)c3ccccc3n2)c1	?	14.2%
Oc1ccccc1Nc1ncnc2c1oc1ccccc12	nt	0.5%
CCOC(=O)C1CCCN(S(=O)(=O)c2ccc3c(c2)N(C)C(=O)CC(=O)N3C)C1 (stereo not drawn)	-12.2%	-15.2%&-3.5%
COc1ccc(OC)c(NC(=O)C2=C(C)C(=O)OC23CCN(C(C)C)CC3)c1	-6.0%	-7.5%
CN/C(=C\[N+](=O)[O-])NCCSCc1csc(CN(C)C)n1	-8.0%	-6.2%
Cc1ccc(S(=O)(=O)N[C@H](C(=O)N2CCC3(O)CCCCC3C2)c2ccccc2)cc1 (stereo partly drawn)	nt	-19.2%

(listing goes on)
SMILES	Vaccinia mCherry	VACV Venus inh
COc1cccc(CNC(=O)C2CCCN(S(=O)(=O)N(C)c3ccc(F)cc3)C2)c1OC (stereo not drawn)	-12.0%	-25.8%
CCCCN(CC)CCNC(=O)C1c2cc(OC)c(OC)cc2C(=O)N2CCc3ccccc3C12 (stereo not drawn)	-27.8%	-13.4%
Cc1cc(C)nc(SCc2cc(=O)c(OC(=O)c3ccc(Cl)c([N+](=O)[O-])c3)co2)n1	i	-10.1%
CC(=O)N1c2ccc(S(=O)(=O)N3CCC(C(=O)NC4CCCCC4)CC3)cc2CC1C (stereo not drawn)	-13.1%	-1.3%
Cc1cc(C)nc(SCC(=O)OC(C)C(=O)Nc2ccccc2)n1 (stereo not drawn)	-16.2%	-13.0%
COc1ccc(C(=O)Nc2ccc3nc(C)sc3c2)cc1S(=O)(=O)N1CCOCC1	?	-22.0%
Cc1cccc(S(=O)(=O)Nc2nc3ccccc3nc2NCC2CCCO2)c1 (stereo not drawn)	-5.1%	-7.5%
Cc1cccc(C(c2sc3nc(-c4ccco4)nn3c2O)N2CCOCC2)c1 (stereo not drawn)	-6.9%	-10.9%
COc1ccc(N2CCN(C(=O)c3cccn4c(=O)c5ccc(Cl)cc5nc34)CC2)cc1	-19.5%	-12.9%
COc1ccc(C(=O)NCCCN=C2NS(=O)(=O)c3ccccc32)cc1	-16.6%	-4.8%
O=S(OCCN1CCCC1)C(c1ccccc1)c1ccccc1 (stereo not drawn)	?	-26.9%
COc1ccc2c(c1)c(CC(=O)OCC(=O)O)c(C)n2C(=O)c1ccc(Cl)cc1	-15.0%	-8.1%&-5.5%
C=CCNC(=S)NNC(=O)c1cc(O)ccc1O	-18.2%	-13.0%
COc1ccccc1N1CCN(C(=O)c2cc3c(s2)CCC3)CC1	nt	-11.3%
Cc1cccc(N(CC(N)=O)C2SC(=O)N(c3ccccc3)C2=O)c1 (stereo not drawn)	nt	-22.8%
CC1=C(C(=O)N2CCOCC2)CC(CC(=O)NC2CC2)C(=O)N1Cc1ccc(F)cc1 (stereo not drawn)	12.1%	-1.7%
C#CCOc1ccc(OC)cc1C(c1c(C)[nH][nH]c1=O)c1c(C)[nH][nH]c1=O	i	-9.3%
CC1=C2C3OC(=O)C(C)C3CCC2(C)C=C(Br)C1=O (stereo not drawn)	i	-10.1%
Cc1cc(O)c2c(c1O)C(=O)[C@]13C(=C2O)C(=O)[C@@H]2[C@@H](O)[C@H]1[C@@H]1[C@H](O)[C@H]3C(=O)C3=C(O)c4c(O)cc(C)c(O)c4C(=O)[C@]312	?	?
CN(c1cccc(NC(=O)COc2ccccc2)c1)S(C)(=O)=O	i	-13.4%
CC1C2Cc3ccc(O)cc3[C@]1(C)CCN2CCc1ccccc1 (stereo partly drawn)	-15.4%	-27.8%
Cc1ccc2nc(CSc3nnc(Nc4ccccc4F)s3)cc(=O)n2c1	-1.3%	-18.8%
COc1ccc(OCC(O)CN2CCN(c3ccc(OC)cc3)CC2)cc1 (stereo not drawn)	?	-16.8%
O=c1oc2ccccc2c(Nc2ccccc2)c1CN1CCCCC1	-7.2%	-18.6%
CSc1nnc(C(C)(C)C)c(=O)n1/N=C/c1ccccc1	i	-5.0%
COCOCCn1cc(CN2CCS(=O)(=O)N(Cc3ccc(-c4ccc(OC)cc4)cc3)C(C(C)C)C2=O)nn1 (stereo not drawn)	i	-28.3%
CC(C)N1CCc2c(sc(NC(=O)Cc3ccccc3)c2C(N)=O)C1	-6.6%	-9.7%
COc1ccc2oc(C)c(C(=O)NN)c2c1	-16.2%	2.1%
Cc1ccc(-c2nc(S(=O)(=O)c3ccc(C)cc3)c(N(C)C)o2)cc1	-9.5%	-12.6%
COc1ccc(CNC(=O)c2cccc(S(=O)(=O)N3CCN(C)CC3)c2)cc1	-8.2%	-10.3%
COC(=O)C1=C(C)NC(=S)N(C(C)=O)C1c1ccc(OC)c(OC)c1 (stereo not drawn)	i	-2.3%
O=C(NCc1ccc2c(c1)CCN2C(=O)c1ccc(F)cc1)c1c(F)cccc1F	-18.9%	-11.3%
Cc1csc(SCC(=O)N(C)C2CCS(=O)(=O)C2)n1 (stereo not drawn)	-11.6%	-1.0%

Screens from PubChem BioAssay.

Hits appear at their usual frequency; any-hit rate near 0.87%.
